StopGo FLuc: lowers the firefly signal of an FMDV 2A StopGo reporter; HEK cells with a luciferase reporter of 2A StopGo recoding; Potency, µM (titrated, usually from 57.5 µM), inactives show at the top dose signal change, negative = less light; hit rate 0.23% among 120,000; active = well fitted falling curve with a large enough effect; inconclusive = small, poorly fitted or top-dose-only effect; inactive = no such curve, though single readings can be large or run the other way; note: nearly all actives have a fitted effect of over 60% in size; overnight with compound
2A Renilla: FMDV 2A StopGo reporter, Renilla signal. HEK cells with a luciferase reporter of 2A StopGo recoding. AID 1745857. Potency, µM (top dose mostly 57.5 µM), for inactives: top-dose signal change, negative = less light. hit rate 0.32% among 120,000; active means well fitted falling curve with a large enough effect; inconclusive means small, poorly fitted or top-dose-only effect; inactive means no such curve, though single readings can be large or run the other way; note: nearly all actives have a fitted effect of over 55% in size; overnight with compound
The depositor's hits bear a star; ? = inconclusive; [ ] = another dose, or the depositor's remark. % is set by controls: 0 for no effect and ±100 for the full control effect; potency is the fitted concentration of half-maximal effect.

The opening 5 entries (preview)
Compound,StopGo FLuc,2A Renilla
CN[C@H]1C[C@H]2c3cc(N4CCOCC4)ccc3CCN2C[C@H]1[C@H](C)O,17%,1%
COc1cc(NC(=O)CCc2nc3cccnc3n2Cc2cccs2)cc(OC)c1OC,-20%,-1%
COc1ccc(NC(=O)N(C(C)C)C2CCN(C(C)=O)CC2)c(OC)c1,-12%,-9%
Cc1c(Cl)cccc1Nc1nc(N)c(C(=O)C(C)C)s1,81%[activator],-11%
O=C(N/N=C/c1cccs1)c1cccc2ccccc12,122%[activator],62%[activator]

Main list, from the first entry:
Compound,StopGo FLuc,2A Renilla
CN[C@H]1C[C@H]2c3cc(N4CCOCC4)ccc3CCN2C[C@H]1[C@H](C)O,17%,1%
COc1cc(NC(=O)CCc2nc3cccnc3n2Cc2cccs2)cc(OC)c1OC,-20%,-1%
COc1ccc(NC(=O)N(C(C)C)C2CCN(C(C)=O)CC2)c(OC)c1,-12%,-9%
Cc1c(Cl)cccc1Nc1nc(N)c(C(=O)C(C)C)s1,81%[activator],-11%
O=C(N/N=C/c1cccs1)c1cccc2ccccc12,122%[activator],62%[activator]
Cc1sc(N)c(C#N)c1-c1ccccc1,0%,22%
Cc1ccc2nc(N3CCN(c4cccc(Cl)c4)CC3)c(-n3nc(C)cc3C)nc2c1,-2%,-5%
CCOC(=O)c1ccc(C#Cc2ccc3c(c2)C(C)(C)CCS3)nc1,1%[11.5 µM],10%
COc1cccc(NC(=O)Cn2c(=O)n(CC(=O)NCCc3ccccc3)c(=O)c3sccc32)c1,4%,35%[activator]
COc1ccc(NC(=O)CN2C(=O)COc3ccc(S(=O)(=O)N4CCOCC4)cc32)cc1Cl,-1%,-1%
O=C(Nc1nc(C2CC2)cs1)C1CC(=O)N(Cc2ccccn2)C1 (centres undefined),16%,-2%
COc1ccc(CC(=O)Oc2ccccc2Br)c(OC)c1,-6%,11%
O=C(Nc1cccc(F)c1)C1CCN(c2nc3ccccc3[nH]2)CC1,-11%,-18%
CC(C)Nc1nc2c(S(=O)(=O)c3cccc(Cl)c3)nnn2c2ccsc12,-23%,-5%
CCOC(=O)c1ccc(CN(Cc2ccc(F)cc2)S(=O)(=O)c2cc(C(=O)Nc3cccc(C(F)(F)F)c3)ccc2F)cc1,-11%,-5%
COCCN1C(=O)c2ccccc2NC1c1cc(OC)cc(OC)c1 (centres undefined),6%,8%
Cc1ccc(SCC(=O)Nc2ccc(O)c(-c3nc4cc(C)ccc4o3)c2)cc1,20%,-7%
O=C(NC1CCCc2ccccc21)c1ccnc(Cl)c1 (centres undefined),19%,3%
CCCCn1nc(C(=O)NCCc2ccc(S(N)(=O)=O)cc2)c2ccccc2c1=O,45%[activator],84%[activator]
COc1ccc(-n2nc(C(=O)NCCCOC(C)C)c3c4ccccc4n(C)c3c2=O)cc1,-17%,-1%
Cc1c(Cl)cccc1NC(=O)Cn1cnc(S(=O)(=O)N2CCOCC2)c1,3%,-2%
CC1CCC(N2CC(=O)N(CCC3=CCCCC3)C(c3ccc(F)cc3)C2=O)CC1 (centres undefined),15%,24%
Cc1c(C)c2c(c(C)c1OC(=O)c1cccnc1)CC[C@@](C)(CCC[C@H](C)CCC[C@H](C)CCCC(C)C)O2,-19%,-13%
Cc1oc(-c2ccccc2)nc1CC(=O)NC1CC1,0%,8%
Cc1cc(Cl)ccc1OCc1nnc(SCc2ccc(Cl)c(Cl)c2)n1C,17%,21%
Cc1ccc(-n2c3c(cc(C#N)c2=O)C(=O)CC(c2ccccc2)C3)c(C)c1 (centres undefined),29%,-7%
CCc1cccc(-n2c(=O)c3cccnc3n2CC(=O)Nc2ccc(F)c(C)c2)c1,-11%,-5%
CCN(Cc1ccccc1)C(=O)Cn1c(=O)n(-c2ccc(C)c(C)c2)c(=O)c2c(C)c(C)sc21,-7%,-10%
O=C(NCc1ccccc1Cl)C1CCN(c2ncnc3nc[nH]c23)CC1,18%,5%
COc1ccccc1CCNC(=O)C(=O)NCC(c1cccs1)S(=O)(=O)c1ccc(C)cc1 (centres undefined),-32%,-24%
CCOC(=O)c1scc(-c2ccccc2)c1S(=O)(=O)Nc1cc(Cl)c(OC)cc1OC,-9%,188%[activator]
CCOc1ccc(NC(=O)CN2CCN(S(=O)(=O)c3ccc(OC)cc3)CC2)cc1,-18%,-7%
N#CCC(=O)c1ccc(N)cc1,23%,-3%
COc1cccc(Nc2nc3c(S(=O)(=O)c4cc(C)ccc4C)nnn3c3ccsc23)c1,-18%,193%[activator]
COc1ccc(N2CCCCS2(=O)=O)cc1S(=O)(=O)NCc1ccco1,-4%,-21%
O=C(c1cc2c(=O)oc3ccccc3c2s1)N1CCN(c2cccc(Cl)c2)CC1,4%,0%
CCOc1ccc(NC(=O)C2CCN(c3nc4ccccc4nc3OC)CC2)cc1,-1%,3%
Fc1ccc(Oc2ncnc3c2oc2ccccc23)c(Cl)c1,172%[activator],0%
Cc1nc2nc(NC(=O)c3ccc(Cl)cc3)[nH]n2c(=O)c1Cc1ccccc1,-6%,-2%
Cc1ccsc1CNCCN(C)C,-10%,-4%
CCN(c1ccccc1)S(=O)(=O)c1cc(Br)cc2c1N(C(=O)C1CC1)CC2,-23%,19%
CC1CCCCN1c1nnc(NC(=O)Nc2ccccc2C(F)(F)F)s1 (centres undefined),156%[activator],-9%
CC(=O)N1CCN(c2ccccc2NC(=O)c2ccc(C#N)cc2F)CC1,-7%,-13%
Cc1cccc(-c2n[nH]c(-c3cccc(C)c3)c2C)c1,122%[activator],-18%
CCN(C(=O)c1cn(CC(C)C)c(=O)c2cc(OC)c(OC)cc12)c1cc(OC)ccc1OC,-15%,36%[activator]
CC(=O)N/N=C(\C)C1CC2CCC1C2 (centres undefined),21%,15%
CCc1ccc(NC(=O)c2cc(S(=O)(=O)NC3CCCC3)ccc2F)cc1,-20%,83%[activator]
Cc1ccc(-c2nn(CCC(=O)N3CCOCC3)c(=O)c3ccccc23)cc1,13%,12%
CCOC(=O)C(CNC(=O)c1nccnc1N)Cc1ccccc1 (centres undefined),0%,16%
Cc1ccc(Cn2cc(S(=O)(=O)c3cccc(Cl)c3)c(=O)c3cc(F)c(N4CCOCC4)cc32)cc1,-2%,6%
O=C(CSc1nnc(-c2ccc(Br)cc2)n1-c1ccccc1)c1ccccc1,15%,6%
Cc1ccc(NC(=O)CSC2=Nc3ccccc3C3=NC(Cc4ccccc4)C(=O)N23)cc1C (centres undefined),24%,107%[activator]
Cc1oc(-c2cccc(Cl)c2)nc1CSCC(=O)NCc1ccccc1Cl,-1%,18%
COc1ccccc1OC(=O)c1ccccc1C,11%,5%
CC(O)CNc1nc2c(c(=O)n(C)c(=O)n2C)n1Cc1ccc(Br)cc1 (centres undefined),3%,7%
CC1CCN(CC(=O)NC(c2cccs2)C(C)C)CC1 (centres undefined),-9%,-16%
Cc1ccc(CN(C(=O)CCc2cccs2)C2CC2)cc1,0%,47%[activator]
CC(C)(C)c1ccc(C(=O)N2CCN(C/C=C/c3ccccc3)CC2)cc1,-10%,-24%
COc1ccc(CNC(=O)c2cnn3c(C)c(Cc4ccc(F)cc4)c(C)nc23)cc1,-21%,-8%
CCCc1noc(C(C)Sc2cc(C(N)=O)c3ccccc3n2)n1 (centres undefined),15%,18%

Next structures.
Compound,StopGo FLuc,2A Renilla
CCOc1ccc(C2c3c(oc4ccc(C)cc4c3=O)C(=O)N2Cc2ccc3c(c2)OCO3)cc1OC (centres undefined),-1%,32%
CCCCc1cc(=O)oc2cc(OCC(=O)N(CC)CC)ccc12,21%,6%
Cc1ccc(C(=O)/C=C/c2cccc(/C=C/C(=O)c3ccc(C)o3)c2)o1,0%,-15%
COc1ccc(OCCn2cc(S(=O)(=O)N3CCCC3)ccc2=O)cc1,-17%,-16%
CCCc1cc(=O)[nH]c(Nc2ccccc2O)n1,9%,1%
COc1cccc(OC)c1C(=O)Nc1ccc(-c2nc3cc(C)ccc3o2)cc1,115%[activator],20%
COc1ccc(Cl)cc1NC(=O)Cn1nc(-c2ccc(C)c(C)c2)ccc1=O,7%,15%
CCOc1ccc2oc(=O)c(-c3ccc(OC)cc3)c(C)c2c1,18%,13%
O=C(c1nc2nc(-c3ccco3)cc(C(F)(F)F)n2n1)N1CCC2(CC1)OCCO2,4%,4%
CCOC(=O)c1ccc(O)cc1,6%,-2%
Cc1ccc(-c2c(NC(=O)c3ccco3)n(-c3ccc(C)cc3)nc(C)c2=O)cc1,-10%,-6%
CCCCOc1ccc(C(=O)Nc2sc3c(c2C(=O)OCC)CCCCC3)cc1,0%,-7%
O=S(=O)(Nc1nc2ccccc2nc1NCc1ccc(Cl)cc1)c1ccccc1,4%,3%
Cc1ccc(NC(=O)c2cccc(N3CCCS3(=O)=O)c2)cc1C,217%[activator],5%
Cc1ccc(CCNC(=O)C2CCN(c3nnc(C)c4c(C)n(-c5ccccc5)nc34)CC2)cc1,-22%,-14%
CC(O)CNC(=O)c1ccccc1 (centres undefined),-3%,-4%
COc1cc(CNC(=O)c2ccc3nc(Cc4ccccc4)oc3c2)cc(OC)c1OC,14µM*,?
CCCCNC(=O)c1ccc(Cl)cc1,0%,7%
Cc1ccc2nc(N3C(=O)C(O)=C(C(=O)c4ccco4)C3c3ccc(O)cc3)sc2c1 (centres undefined),83%[activator],-6%
Cc1ccc(C)c(C(=O)/C=C/Nc2ccc(N(C)C)cc2)c1,155%[activator],8%
CNC(=O)C1CCN(C(=O)c2ccc(C)cc2)CC1,22%,-13%[1.06 µM]
COc1cc(NC(=O)Cn2c(=O)n(Cc3ccccc3OC)c(=O)c3cccnc32)cc(OC)c1,14%,-4%
CCc1ccc(C(=O)CC(c2ccccc2)C2CCCCC2=O)cc1 (centres undefined),-8%,38%[activator]
Cc1ccc(SC(C)C(=O)NN=C2CCC(C(C)(C)C)CC2)cc1 (centres undefined),0%,31%[activator]
N#Cc1cccc(C(=O)OCc2cccnc2)c1,12%,6%
Cc1nc(C(=O)Nc2nc(C(C)(C)C)cs2)nn1-c1ccc(Cl)cc1,9%,-2%
Cc1ccc(CNC(=O)CSc2nc3ccsc3c(=O)n2-c2ccc(Br)cc2)cc1,-21%,3%
CCCc1cc(=O)[nH]c2nnc(SCC(=O)Nc3cccc(C)c3)n12,0%,7%
Cc1ccc(NC(=O)C2CCCN(c3cnccn3)C2)c(C)c1 (centres undefined),17%,0%
CCN(CC)C(=O)c1ccc(NC(=O)CCn2nc(-c3ccc(C)cc3)c3ccccc3c2=O)cc1,-6%,-20%

Reformatted with two lines to a compound: part of the list above.
The line under a structure holds: StopGo FLuc | 2A Renilla
- Cc1nc(C(=O)Nc2nc(C(C)(C)C)cs2)nn1-c1ccc(Cl)cc1
  9% | -2%
- N#Cc1cccc(C(=O)OCc2cccnc2)c1
  12% | 6%
- CCc1ccc(C(=O)CC(c2ccccc2)C2CCCCC2=O)cc1 (centres undefined)
  -8% | 38%[activator]
- COc1cc(CNC(=O)c2ccc3nc(Cc4ccccc4)oc3c2)cc(OC)c1OC
  14µM* | ?
- CCCc1cc(=O)[nH]c2nnc(SCC(=O)Nc3cccc(C)c3)n12
  0% | 7%
- CCCCNC(=O)c1ccc(Cl)cc1
  0% | 7%

(cont.)
Compound,StopGo FLuc,2A Renilla
N#Cc1cc(C(=O)c2ccccc2OCC(=O)Nc2ccc(F)cc2)cn(C2CCCCC2)c1=O,0%,18%
CCc1ccc2oc(=O)cc(CN3CCN(CC(=O)Nc4ccc5c(c4)OCCO5)CC3)c2c1,18%,6%
Cc1ccccc1NC(=O)Nc1ccc2c(c1)N(C(=O)c1ccccc1)CC2,?,-13%
O=C(c1ccccc1)N1CCc2cc(CNS(=O)(=O)c3ccc(Cl)s3)ccc21,-11%,48%[activator]
CC(C)(C)OC(=O)N1CCC(c2c(C(=O)NCc3ccccn3)cnn2-c2ccccc2Cl)CC1,-18%,6%
CC(C)C(NC(=O)NCc1ccn[nH]1)c1ccc2c(c1)OCCCO2 (centres undefined),3%,-7%
C=CCSc1nc2c(c(=O)[nH]c(=O)n2C)n1CCCCCC,0%,12%
Cc1ccc(OCc2cc(=O)n3c(-c4ccccc4)csc3n2)cc1,19%,-16%
NCC(Cc1ccccc1F)c1ccccc1 (centres undefined),-7%,9%
O=C(CCSCCc1ccccn1)Nc1cc(F)ccc1F,-18%,-9%
O=C1COc2ccc(-c3csc(Nc4ccc(F)c(Cl)c4)n3)cc2N1,?,?
O=c1c2cnc3nc(C(F)(F)F)nn3c2ccn1-c1ccc(F)c(F)c1,4%,-3%

Some of the compounds tested; count on the stated rates, not on these rows.
